VACV mCherry inh – inhibitors of vaccinia virus infection (mCherry reporter signal) | Vaccinia virus mCherry reporter infection, fluorescence; about a quarter of the inactives have no number | Potency, µM (highest dose often 36.5 µM), for the others: top-dose activity change, negative = inhibition, most hits filed as inhibitors | 310,000 tested, 0.63% active; active = well fitted inhibition curve with a large enough effect; inconclusive = small, poorly fitted or top-dose-only effect; inactive = no such curve, though single readings can be large or run the other way; tested in A549 cells; note: nearly all actives have a fitted effect of over 35% in size; inactives centre near -10
Vaccinia Venus – vaccinia inhibition (Venus reporter). Vaccinia virus Venus reporter expression, fluorescence. Potency, µM (highest dose often 36.5 µM), inactives show at the top dose activity change, negative = inhibition, hits mostly inhibitors. 330,000 tested, 0.46% active; active means well fitted inhibition curve with a large enough effect; inconclusive means small, poorly fitted or top-dose-only effect; inactive means no such curve, though single readings can be large or run the other way; tested in A549 cells; note: nearly all actives have a fitted effect of over 30% in size; inactives centre near -10
Numbers without * were called inactive; i = inactive; ? = inconclusive; / = not tested or not shown; & = joins results of further samples; [ ] = another dose, or the depositor's remark. % is set by controls: 0 for no effect and ±100 for the full control effect; potency is the fitted concentration of half-maximal effect.

molecule,VACV mCherry inh,Vaccinia Venus
CCOC(=O)C1CSC(CC(=O)Nc2ccc(Cl)c(Cl)c2)C(=O)N1 (stereo not given),-9%,-1%
CC(C)CNC(=S)N1CCN(Cc2ccc3c(c2)OCO3)CC1,?,-28%
CC[C@]12c3[nH]c4ccccc4c3CCN1C(=O)C(CC(=O)NCCCOC)C[C@@H]2C(=O)N1CCN(C(=O)c2ccco2)CC1 (stereo not given in full),i,-8%
Cc1ccc(S(=O)(=O)N2CCCc3cc(NC(=O)c4ccccc4Cl)ccc32)cc1,-8%,-7%
O=C(O)c1ccc(CSc2nnc(-c3ccco3)n2-c2ccccc2)cc1,i,-2%
C=CCOC(=O)Nc1nc(CCNC(=O)OC(C)(C)C)c(C(=O)OC)s1,-6%,-6%
NC(=O)CN(c1ccc(Cl)cc1)S(=O)(=O)c1ccccc1,-20%,-8%
CC(=O)CC1(OC(C)=O)C(=O)N(C)c2ccccc21 (stereo not given),-14%,-16%
Cc1cccc(OC(C)C(=O)NCC2(N(C)C)CCCCC2)c1C (stereo not given),-7%,-2%
CC(C)C(=O)N1CCCC1(C)C(=O)Nc1ccccc1 (stereo not given),14%,4%
CCSc1ncccc1C(=O)N[C@@H](CCSC)C(=O)OC,i,-7%
O=C(Cc1ccccc1)Nc1nc2ccc(Cl)cc2c2nc(-c3ccco3)nn12,-18%,-3%
CC1CCN(c2nc3c(c(=O)[nH]c(=O)n3C)n2CCSc2ncccn2)CC1,-23%,3%
CCOC(=O)c1c(C)[nH]c(CCC(=O)NCc2cccc(C)c2)c1C,-14%,-6%
COc1ccc(OC)c(CNC(=O)CCCn2nc(C)c3c(C)n(-c4ccc(C)cc4)nc3c2=O)c1,-28%,-26%
O=C(CSc1nnc(SCc2ccccc2)s1)N/N=C/c1c(Cl)cccc1Cl,-21%,?
CCOC(=O)C1CCCN(C(=O)c2cn(-c3ccccc3)nc2-c2cccnc2)C1 (stereo not given),-10%,-3%
CC(C)c1cccc(-c2csc(C(C)(O)c3ccc(F)c(F)c3)n2)c1 (stereo not given),-3%,?
Cc1ccc(NC(=O)CC2S/C(=N/N=C/C=C/c3ccccc3)NC2=O)cc1Cl (stereo not given),-2%,-8%
Cc1cc(C)cc(Cn2cc(CN3CC(N(C)C)CS3(=O)=O)nn2)c1 (stereo not given),4%,-1%
Cn1c(O)c(C=NCCN2CCOCC2)c(=O)n(C)c1=S,-14%,-5%
Cc1nn(-c2ccccc2)c(Cl)c1C(=O)NCC(=O)O,-17%,-13%
Cc1ccc(-c2csc(N=C(N)N)n2)cc1,?,-27%[7.34 µM]
CC(C)(C)c1[nH]nc2c1C(c1ccncc1)C(C#N)=C(N)O2 (stereo not given),/,-10%
Nc1c(NCc2ccccc2F)c(=O)[nH]c(=O)n1Cc1ccccc1,/,-15%
Cc1nc(CSc2ccc(Cl)cc2)cs1,-17%,-9%
O=C1CN(C(=O)CSc2ccc(-c3ccc(F)cc3)nn2)c2ccccc2N1,-18%,-17%
Cc1ccc(S(=O)(=O)N2[C@H](c3cccc(Cl)c3)CC(=O)[C@@H]3CN(S(=O)(=O)c4ccccc4C)[C@H](c4ccc(Cl)cc4)C[C@@H]32)cc1,-18%,-26%
O=C(CNC(=O)C1CCCCC1)Nc1ccccc1,i,-10%
COc1ccc(Br)cc1Cn1nnc(C(=O)Nc2cccc(SC)c2)c1N,-22%,-14%
CC1=C(C(=O)N2CCOCC2)CC(CC(=O)NC2CCCCC2)C(=O)N1CCCN1CCCC1=O (stereo not given),-7%,-16%
OC(COC(c1ccccc1)c1ccccc1)CN1CCCCC1 (stereo not given),-14%,-2%
CC(=O)N(Cc1ccccc1)C(CC(=O)NCc1ccccc1)C(=O)O (stereo not given),-6%,-10%
Cc1ccc(NC(=O)C2CCC2)cc1S(=O)(=O)N1CCCCCC1,-10%,-11%
Cc1cccc(OCC(=O)NC2CC(C)(C)NC(C)(C)C2)c1,-12%,21%
O=C(COC(=O)c1c(F)cccc1F)Nc1ccc2[nH]c(=O)[nH]c2c1,-8%,-4%
CC(=O)N/C(=C\c1ccccc1)C(=O)OCC(=O)c1ccccc1,-11%,-7%
COc1ccc(C2C(C#N)=C(N)Nc3nc4ccccc4n32)cc1 (stereo not given),-27%,-16%
CC(C)(CNC(=O)c1cccc(S(=O)(=O)N2CCCCC2)c1)N1CCOCC1,-11%,-16%
Cc1ccc(NC(=S)NCc2ccc(S(N)(=O)=O)cc2)cc1Cl,-5%,-6%
COc1ccc(C(=O)Cc2cc(OC)c(OC)cc2[N+](=O)[O-])cc1,i,-5%
O=C(N/N=C/c1ccccc1OC(F)F)c1cc(-c2ccncc2)nc2ccccc12,-19%,-26%
CC(C)C1C(=O)N(Cc2cn(CCC3OCCO3)nn2)CCS(=O)(=O)N1Cc1ccc(-c2cccc(CO)c2)cc1 (stereo not given),i,-25%
CCCOc1ccc(C(=O)Nc2ccc(Cl)c(-c3nc4ncccc4o3)c2)cc1,7%,-4%
CCCCN(CC)CCNC(=O)C1CCN(c2nnc(C)c3c(C)n(-c4ccc(C)cc4)nc23)CC1,-14%,?
COc1ccc(OC)c(Cc2nnc(CCC(=O)NCc3ccc(C)s3)o2)c1,-23%,-16%
O=C(/C=C/c1ccc2c(c1)OCO2)NCCCN1CCOCC1,-13%,0%
CCOC(=O)C1(CCOc2ccccc2)CCN(Cc2ccc(F)c(OC)c2)CC1,i,-3%
Cc1ccc(C(=O)CCC(=O)NCc2ccc(Cl)cc2)cc1,i,-7%
Cc1cc(C(=O)COC(=O)C2CCN(C(=O)c3ccc(Cl)cc3)CC2)c(C)n1CC1CCCO1 (stereo not given),-9%,-4%

2 successive records already listed:
molecule,VACV mCherry inh,Vaccinia Venus
Cc1ccc(NC(=O)C2CCC2)cc1S(=O)(=O)N1CCCCCC1,-10%,-11%
Cc1cccc(OCC(=O)NC2CC(C)(C)NC(C)(C)C2)c1,-12%,21%

(more compounds)
molecule,VACV mCherry inh,Vaccinia Venus
CC1=C(C)CC(C(=O)NC(C)CCc2ccccc2)C(C(=O)O)C1 (stereo not given),i,-10%
C[C@H]1CCCC(=O)CCCCCc2cc(O)cc(O)c2C(=O)O1,-22%,-29%
O=Cc1cn(CCC(=O)O)nc1-c1cc2ccccc2o1,-3%,-5%
NC(=O)c1ccsc1NC(=O)COC(=O)c1ccc(Cl)nc1,-12%,-18%
O=C(c1ccc(C(=O)N2CCOCC2)s1)N1CCOCC1,i,-14%
CC(Oc1ccccc1)C(=O)Nc1nnc(S(=O)(=O)N2CCCCCC2)s1 (stereo not given),-23%&-7%,-15%&-6%
COC(=O)C1=C(c2cc3ccccc3o2)C[C@@H]2CC[C@H]1N2C,-5%,-9%
CCOc1ccccc1CNc1nc2nc3c(c(=O)n2[nH]1)CCC3,/,-13%
COc1ccc(C(=O)NCc2ccc(C)cc2)cc1S(=O)(=O)N1CCCc2ccccc21,?,-27%
O=C(O)/C(=C\c1ccccc1OC(F)F)c1ccc(-c2ccccc2)cc1,-5%,-7%
Cc1ccccc1Cn1nnc2c1C(=O)c1ccccc1C2=O,-12%,4%
CC(C)CCN1CCN(Cc2ccc(Oc3ncccn3)cc2)CC1CCO (stereo not given),-7%,1%
COc1ccc(C(=O)c2c(N)c(C(=O)Nc3ccccc3Cl)c3ccccn23)cc1,-14%,-19%
Cc1nc2c(=O)n(C)c(=O)nc-2n(C)n1,?,0.5µM*
O=C1CSC(=S)N1c1ccc(Cl)c(Cl)c1,i,29%
O=C(NCc1ccc(F)cc1)c1ccc2c(=O)n3c(nc2c1)CCCCC3,-6%,-7%
C=CC(=O)Nc1cccc(CN2C(=O)N(c3cc(OC)cc(OC)c3)Cc3cnc(NCCCCN(CC)CC)nc32)c1,-18%,?
Cc1cccc(-c2nc(CCNC(=O)c3ccco3)cs2)c1,-4%&-22%,-12%&-2%
N#Cc1ccc(CSc2nnc(-c3ccccn3)n2-c2ccccc2)cc1,/,-25%
CC(=O)Nc1ccc(NC(=O)C(Cc2ccccc2)N2Cc3ccccc3C2=O)cc1 (stereo not given),i,-12%
CC1(C)CC(=O)C2=C(C1)Nc1ccccc1NC2c1cccs1 (stereo not given),-5%,-7%
Cn1c(SCc2c(F)cccc2Cl)nc2c(c1=O)SCC2,-4%,-16%
C#CCNC(=O)c1ccc2sc([C@H]3C[C@H](O)[C@@H](CO)O3)nc2c1,30%,3%
CNc1cccnc1C=NNC(N)=S,?,?
CCn1c(=O)cc(OCC(=O)N2CCCC2)c2ccccc21,-4%,2%
O=C(N/N=C/C(c1ccccc1)c1ccccc1)c1ccccc1F,-10%,-19%
CS(=O)(=O)N(Cc1ccc(C(=O)N2CCc3ccccc3C2)cc1)c1ccccc1,i,-6%
Cc1cc(C)c2nc(SC(C)C#N)cc(C)c2c1 (stereo not given),/,-12%
N#Cc1ccccc1S(=O)(=O)N1CCN(C(=O)Cc2n[nH]c(=O)c3ccccc23)CC1,-7%,-2%
CC(NC(=O)COC(=O)c1ccc2c(c1)OCCO2)c1ccccc1 (stereo not given),i,-15%
CC1=NN(c2ccc(Cl)c(C(=O)O)c2)C(=O)/C1=C\c1ccc(-c2ccc(C(=O)O)cc2)o1,i,3%
O=C(CSC1=Nc2ccccc2N=C(c2ccc(F)cc2)C1)NCc1ccc(Cl)cc1,-21%,-17%
CCC1CCCCN1C(=O)CSc1nnc(CNC(=O)c2ccco2)o1 (stereo not given),-10%,-8%
COc1cc(NC(=O)c2cccc3c(-c4cnn(C)c4)coc23)cc(OC)c1OC,-16%,?
O=c1c2ccccc2nc(SCCN2CCCCC2)n1CCc1ccccc1,-26%,-10%
Cc1ccc(C(=O)NCCN2C3=NC[C@@H](Cc4ccccc4)N3C[C@H]2Cc2ccc(O)cc2)cc1Br,-13%,?
CC(=O)Nc1ccc(SCC(=O)Nc2ccccc2N2CCOCC2)cc1,i,-16%
CCOC(=O)CSCC(NC(=O)OC(C)(C)C)C(=O)OCC (stereo not given),/,-32%
CN(CCO)CC(O)Cn1cnc2c1c(=O)n(C)c(=O)n2C (stereo not given) (tested in a mixture with another compound),-7%,-3%
CCN(CC)C(=O)COc1coc(CN2CCN(c3ccc(F)cc3)CC2)cc1=O,-18%,-10%
C/C(O)=C\c1nc(=O)c2c(C)cc(C)nc2n1-c1ccccc1,i,0%
CCc1ccc(Nc2nnc(SCC(=O)Nc3ccc(C(=O)O)cc3)s2)cc1,-10%[7.34 µM],-14%[7.34 µM]
CC1CC(C)(C)N2C(=O)C3(Nc4ccccc4S3)c3cccc1c32 (stereo not given),i,-18%
O=c1c(Oc2ccccc2F)coc2cc(OCc3cnn(-c4ccccc4)c3)ccc12,-12%,-14%
CC1(C(=O)NCc2ccccc2)CN(S(C)(=O)=O)CC(=O)N1Cc1cccs1 (stereo not given),i,-21%
Clc1ccc(COn2nnc3ccccc32)c(Cl)c1,-25%,-13%
Cc1c(Cc2ccccc2)c(=O)oc2c(C)c(OCC(=O)N3CCC(C(=O)O)CC3)ccc12,6%,10%
C[C@H]1COC(=O)[C@@H](Cc2ccc(F)cc2)CC/C=C\C[C@H](CC(=O)NCCO)C(=O)N1,-18%,-3%
O=C(NCCCNC(=O)c1ccc(Cl)cc1Cl)c1ccco1,-10%,-5%
COC(=O)C1=CN(c2ccc(F)c(F)c2)C=C(C(=O)OC)C1c1ccc([N+](=O)[O-])cc1,?,1%

Going on with the list.
molecule,VACV mCherry inh,Vaccinia Venus
O=C(NC1CC1)C1=C[C@@H](C2CCCCC2)C[C@@H](OCCCCO)O1,i,-13%
Cc1nc2ccccc2c(=O)n1CCCn1ccnc1,-11%,-4%
CCOC(=O)C1=C(C)N(C[C@@H]2CC[C@@H](Cc3ccc(-c4ccccc4)cc3)O2)C(=O)NC1c1cccc([N+](=O)[O-])c1 (stereo not given in full),-23%,0%
COc1ccccc1-n1c(SCC(=O)NC2CCCC2)nc2cccnc21,-8%,-9%
COc1ccc(S(=O)(=O)N2CCCC(C(=O)NCc3ccc4c(c3)OCO4)C2)cc1 (stereo not given),-11%,-8%
O=C(/C=C/c1ccccc1O)c1ccc(Cl)cc1,-12%,-15%
COc1ccc(OC)c(NC(=O)CN2CCCN(Cc3cc(C)ccc3C)S2(=O)=O)c1,-20%,-16%
O=C(NCCN1CCOCC1)c1cc(-c2cccc(O)c2)on1,1%,1%
COc1ccc(C2=NN(C(=O)c3cccs3)C(c3ccccc3OC)C2)cc1OC (stereo not given),?,-8%
N=C1/C(=C\c2coc3ccc(O)cc3c2=O)C(=O)N=C2SC=CN12,-7%,14%
O=S(=O)(c1ccc(-c2ccccc2)cc1)N1CCCCC1,-9%,3%

Compounds above that have a tert-butyl group, in the order listed:
molecule,VACV mCherry inh,Vaccinia Venus
C=CCOC(=O)Nc1nc(CCNC(=O)OC(C)(C)C)c(C(=O)OC)s1,-6%,-6%
CC(C)(C)c1[nH]nc2c1C(c1ccncc1)C(C#N)=C(N)O2 (stereo not given),/,-10%
CCOC(=O)CSCC(NC(=O)OC(C)(C)C)C(=O)OCC (stereo not given),/,-32%
